# Screening data from PubChem BioAssay.
# Cruzain inh Det = cruzain (T. cruzi) inhibition with detergent. P25779. purified cruzain, Z-FR-AMC fluorescence, 0.01% Triton. Potency, µM, for the others: max response, negative = inhibition, usual class: inhibitors. 200,000 tested, 0.43% active; active = well fitted curve in the direction sought with a large enough effect; inconclusive = small, poorly fitted or top-dose-only effect, or another doubt; inactive = no such curve, though single readings can be large; an effect the other way counts as inactive or inconclusive;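 note: plate controls were neutral wells for no effect and buffer without enzyme for full effect; nearly all actives have a fitted effect of over 40% in size; top concentration of the series not given in the record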
# Target sequence (P25779 123-467 limits assumed): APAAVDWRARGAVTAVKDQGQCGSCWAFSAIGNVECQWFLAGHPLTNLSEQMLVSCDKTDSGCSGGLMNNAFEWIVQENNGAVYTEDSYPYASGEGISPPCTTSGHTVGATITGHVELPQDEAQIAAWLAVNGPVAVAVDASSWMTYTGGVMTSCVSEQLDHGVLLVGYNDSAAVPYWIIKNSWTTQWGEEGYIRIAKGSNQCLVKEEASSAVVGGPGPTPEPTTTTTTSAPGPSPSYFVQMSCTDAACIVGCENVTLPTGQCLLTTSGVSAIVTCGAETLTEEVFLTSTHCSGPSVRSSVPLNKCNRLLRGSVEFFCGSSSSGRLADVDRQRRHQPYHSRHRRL
#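 Cruzain (1.5 nM) preincubated 15 min at RT with compound in 100 mM sodium acetate pH 5.5, 5 mM DTT, 0.01% Triton X-100. Reaction started with 2 uM Z-FR-AMC; AMC fluorescence (ex 360/em 450 nm) change over 60 s gave rate.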
# NS1 inh = blocks influenza NS1 protein function; 270,000 tested, 0.4% active; S. cerevisiae slowed by influenza A NS1, growth recovery by OD600; Potency, µM (top dose mostly 46.1 µM), without a hit: at the highest dose activity, positive = more growth; note: actives are rising curves; nearly all actives have a fitted effect of over 50% in size
#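 Recovery from NS1-induced slow growth read by OD600 in budding yeast switched to galactose assay medium (pH 6.0, -URA) at 1:100 dilution. Compound 23 nl per well; the matching strain lacking NS1 serves as control.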
# SARS PLpro yeast = SARS-CoV PLP inhibition in yeast | AID 485353 | 330,000 tested, 0.19% active | Potency, µM (doses to about 32.9 µM), without a hit: at the top dose activity, positive = growth rescue | S. cerevisiae expressing SARS-CoV PLpro, growth rescue; control for the full effect not named in the record; note: 0% is about no effect; nearly all actives have a fitted effect of over 55% in size; growth read by luminescence after 48 h
# Lassa entry inh = inhibitors of Lassa virus binding or cell entry; Lassa virus pseudotype entry inhibition, cell reporter; control for the full effect not named in the record; Potency, µM (doses to about 37.9 µM), inactives show at the top dose activity change, negative = inhibition, most hits filed as inhibitors; 300,000 tested, 1.2% active; AID 540256; active means well fitted inhibition curve with a large enough effect; inconclusive means small, poorly fitted or top-dose-only effect, or effect the other way; inactive means flat fitted curve, though single readings scatter; tested in HEK293 cells; note: % is set by controls: 0 for no effect and ±100 for the full control effect; nearly all actives have a fitted effect of over 50% in size; luciferase read-out
# MARV entry inh = inhibitors of Marburg virus binding or cell entry | Marburg virus pseudotyped entry inhibition, cell reporter; control for the full effect not named in the record; about a third of the inactives were read at about 46 µM | Potency, µM (highest dose often 37.8 µM), for the others: at the top dose activity change, negative = inhibition, usual class: inhibitors | 300,000 tested, 1.8% active; active = well fitted inhibition curve with a large enough effect; inconclusive = small, poorly fitted or top-dose-only effect, or effect the other way; inactive = flat fitted curve, though single readings scatter; tested in HEK293 cells; about a fifth of its hits are not listed in these tables; note: % is set by controls: 0 for no effect and ±100 for the full control effect; luciferase read-out
# StopGo reporter = FMDV 2A StopGo reporter, luciferase signal. human cells with a luciferase reporter of 2A StopGo recoding; control for the full effect not named in the record. Potency, µM (top dose mostly 57.9 µM), for inactives: at the highest dose signal change, negative = less light. 410,000 tested, 1.2% active; active = well fitted falling curve with a large enough effect; inconclusive = small, poorly fitted or top-dose-only effect; inactive = no such curve, though single readings can be large or run the other way; tested in HEK293T cells; note: % is set by controls: 0 for no effect and ±100 for the full control effect; nearly all actives have a fitted effect of over 45% in size; luciferase light after 4 h
# Cruzain inh noDet = inhibitors of Trypanosoma cruzi cruzain without detergent. purified cruzain, Z-FR-AMC fluorescence, no detergent. P25779. Potency, µM, inactives show max response, negative = inhibition, hits mostly inhibitors. AID 1476. 200,000 tested, 2.3% active; active = well fitted curve in the direction sought with a large enough effect; inconclusive = small, poorly fitted or top-dose-only effect, or another doubt; inactive = no such curve, though single readings can be large; an effect the other way counts as inactive or inconclusive;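 note: plate controls were enzyme without inhibitor for no effect and buffer without enzyme for full effect; nearly all actives have a fitted effect of over 40% in size; top concentration of the series not given in the record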
#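 Purified cruzain at 1.5 nM, pre-incubated 15 min with compound at room temperature in 100 mM sodium acetate pH 5.5, 5 mM DTT, 0.00005% Triton X-100. Reaction started with 2 uM Z-FR-AMC; AMC fluorescence increase over 60 s gives rate.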
# RE007 growth inh = less growth of the S. pombe RE007 Vpr strain. S. pombe RE007 Vpr strain, BacTiter-Glo ATP luminescence, 24 h; control for the full effect not named in the record. Potency, µM (series often up to 92.2 µM), without a hit: at the top dose activity change, negative = less growth. 360,000 tested, 0.21% active. AID 651644; active = well fitted falling curve with a large enough effect; inconclusive = small, poorly fitted or top-dose-only effect; inactive = no such curve, though single readings can be large or run the other way;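 note: % is set by controls: 0 for no effect and ±100 for the full control effect; nearly all actives have a fitted effect of over 50% in size; the assay follows cell death caused by Vpr and the record does not say whether a fall means rescue or toxicity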
#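 Fission yeast strain RE007, carrying one chromosomally integrated HIV-1 vpr copy, was seeded at OD 0.01 in PMG+AL medium with 23 nL pinned compound. After 24 h at 30 °C and 99% humidity, viability was read by BacTiter-Glo luminescence.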
# Active calls of the source: *; u = inconclusive; x = not tested or not shown; & = joins results of further samples; [ ] = dose if it differs, or a comment. Unless noted, calls come from the whole dose curve; as a rule, active means well fitted rising curve with a large enough effect; inconclusive means small, poorly fitted or top-dose-only effect; inactive means no such curve, though single readings can be large or run the other way. Potency is the fitted concentration of half-maximal effect.
SMILES,Cruzain inh Det,NS1 inh,SARS PLpro yeast,Lassa entry inh,MARV entry inh,StopGo reporter,Cruzain inh noDet,RE007 growth inh
Cc1ncc(CN2CCCC(CCC(=O)NCc3ccccc3F)C2)s1 (centres undefined),x,1%,0%,-22%,-4%[46.1 µM],-2%,x,-19%
CCS(=O)(=O)Nc1ccc(-c2nnc(SCC(=O)c3ccc(NC(C)=O)c(OC)c3)o2)cc1,1.5%,8%,1%,u,0%,-2%,4%,-7%
CCNC(=S)Nc1ccc2cn[nH]c2c1,-1.7%,11%,10%,14%,1%,-12%,-4%,0%
O=C1CSC(c2cccnc2)N1C1CCCCC1 (centres undefined),0.3%,-1%,-11%,16%,u,-4%,-3%,11%
O=C(CSc1nc2cccnc2n1Cc1ccccc1)N1CCCC1,-4.9%,-2%,-2%,-7%,1%,-14%,-2%,-5%
Nc1nc(Cl)nc2ccc(Br)cc12,-3.5%,18%,18%,0%,10%,u,u,-12%
CCOc1ccccc1NC(=S)NC1CC2CCC1C2 (centres undefined),x,-68%,-2%,x,x,18%,x,-4%
O=C(Nc1ccc(N2CCOCC2)c(Cl)c1)c1cccnc1Cl,0.9%,-5%,-4%,11%,21%,44%[activator],-2%,-4%
COc1ccc(CN(Cc2ccco2)C(=O)COc2ccc(Cl)cc2C)cc1,-4.2%,x,x,-3%[46.1 µM],9%[46.1 µM],u,-2%,x
CC(=O)N1CCN(CC(=O)Nc2ccc(C#N)c(Cl)c2)CC1,x,x,1%,6%[46.1 µM],15%[46.1 µM],-6%,x,12%
COc1cc(/C=N/NC2=NCCCCC2)ccc1O,x,6%,0%,9%,8%[46.1 µM],-1%,x,-1%
Cc1cc(C)cc(NC(=O)C(Sc2ncnc3ccccc23)c2ccccc2)c1 (centres undefined),-2.4%,u,9%,-1%,-18%,-10%,u,6%
Cc1ccc(Nc2c(-c3ccc(C)o3)nc3cccc(C)n23)cc1,-14%,x,x,-11%[46.1 µM],u,-4%,4%,x
Cc1noc(/C=C/N(C)C)c1S(=O)(=O)N(C)CC(=O)N1CCc2ccccc21,-3.2%,14%,1%,-20%,-26%[46.1 µM],-18%,-4%,0%
CCc1ccc(NC(=O)C(C)OC(=O)CCN2C(=O)C3CC=CCC3C2=O)cc1 (centres undefined),x,x,x,21%,7%[46.1 µM],3%,x,6%
O=C(Cc1n[nH]c(=O)c2ccccc12)OCC(=O)c1ccccc1Cl,x,x,-5%,24%,-5%,-7%,x,-25%
COc1ccc(N2CCN(C(=O)c3ccc4c(=O)n(CCc5ccc(OC)c(OC)c5)c(=O)[nH]c4c3)CC2)cc1,3.1%,x,-5%,-26%,11µM*,28µM*,-4%,0%
COc1cccc2c(=O)cn[nH]c12,-1.8%,-10%,13%,9%,u,2%,-4%,0%
O=C(Nc1ccccc1C(=O)NCc1cccnc1)c1ccccc1Cl,x,7%,u,8%,u,-7%,x,27%
CSCC(=O)N1CCc2ccc(NC(=O)c3ccccc3Cl)cc2C1,x,-11%,-2%,11%[46.1 µM],u,37%[activator],x,13%
CC(C)(C)c1ccc(OCc2ccc(C(=O)N/N=C/c3ccc([N+](=O)[O-])cc3)o2)cc1,-5.4%,-1%,8%,u,u,-4%,-17%,1%
COc1ccc(-n2ncc3c(NCc4ccccn4)ncnc32)cc1,-1.8%,-1%,-11%,-16%,15%,51%[activator],-6%,3%
O=C(Cn1c2ccc(F)cc2c2nc3n(c(=O)c21)CCS3)Nc1ccccc1C(F)(F)F,x,x,-4%,x,3%[46.1 µM],0%,x,16%
CCCc1nnc(NC(=O)c2cc(OC)cc(OC)c2)s1,-3.8%,-60%,6%,0%,u,3%,-8%,-19%
COc1ccc(C(=O)N2CCN(c3nc4ccccc4o3)CC2)cc1OC,-5.4%,-7%,4%,x,x,u,-9%,-5%
CCOC(=O)C1=C(C)Nc2ccccc2N=C1NC(=O)c1cccc(S(=O)(=O)NCc2ccccc2)c1,1.2%,-25%,4%,-8%,u,13%,5%,16%[3.69 µM]
COCCn1c(C)cc(/C=N/NC(=O)c2cc3ccccc3cc2O)c1C,x,x,-7%,0%,11%,45%[activator],x,-18%
O=C(Nc1ccccc1N1CCOCC1)c1ccccc1[N+](=O)[O-],0.0%,9%,2%,15%,4%,-11%,-10%,6%
COc1ccccc1CNc1ncnc2cc(OC)c(OC)cc12,x,x,1%,6%,-10%,u,x,-16%
COc1ccccc1-c1cc(C(=O)NC(C)C)no1,8.1%,-31%,5%,u,u,51%[activator],5%,u
CC12CN3CCN(CC(C3)/C1=N\NC(=O)c1ccccc1N)C2,x,0%,0%,15%,-38%[46.1 µM],63%[activator],x,1%
FC(F)(F)c1cccc(NC(=S)NNC(=S)NCc2ccccc2)c1,4.8%,3%,-37%,13%,11%,x,u,-8%
CCC(=O)Nc1ccccc1C(=O)OCC(=O)c1ccc2ccccc2c1,-2.0%,4%,-9%,3%,u,u,-5%,-1%
COc1ccc(-c2cn[nH]c2-c2ccc(OCc3ccc([N+](=O)[O-])cc3)cc2O)cc1,-3.5%,13%,-77%,u,-26%,-27%,u,x
CCOc1ccc(NC(=O)c2c(NCc3ccc(C)o3)sc3c2CCC(C)C3)cc1 (centres undefined),-11%,x,x,4%[46.1 µM],x,19%,-4%,x
CN1C(=O)/C(=C\C=C2/CCCN2C)N(C)C1=S,x,11%,-3%,u,u,26%,x,-16%
CCOc1ccc(NC(=O)c2cc3n(n2)C(C(F)(F)F)CC(c2ccco2)N3)cc1 (centres undefined),0.5%,-11%,0%,-2%,-1%,-3%,3%,-6%
CC(=O)Nc1ccc(NC(=O)CS(=O)(=O)Cc2ccccc2)cc1,x,12%,-10%,7%,24%,-15%,x,20%
CCOc1cc(NC(=O)c2ccco2)c(OCC)cc1NC(=O)CCc1ccc(OC)cc1,2.8%,5%,-6%,x,0%,x,-5%,x
O=c1[nH]cc(N2CCCCCC2)c(=O)[nH]1,x,0%,1%,-3%,6%[46.1 µM],4%,x,5%
CC(=O)N1CC[n+]2c(-c3ccc(Cl)cc3Cl)csc21,-13%,-2%,-34%,-7%,2%,-22%,-10%,-15%
COc1ccc(-n2c(=O)c3c(c4cc(OC)ccc4n3C)n(Cc3c(F)cccc3Cl)c2=O)cc1,-1.9%,x,x,-3%[46.1 µM],x,-7%,9%,x
O=C(CN1CCCC1)NCC(=O)Nc1ccc(F)cc1,x,x,-2%,-5%[46.1 µM],-6%[46.1 µM],-3%,x,-4%
Cc1cc(SCc2ccc(Cl)cc2Cl)nc(=O)[nH]1,x,4%,-4%,x,x,-13%,x,-8%
O=C(CNC(=O)c1ccc2ccccc2c1)NC1CCCCC1,x,x,x,20%,9%,113%[activator],x,6%
O=C(CN1CCN(C(=O)c2ccco2)CC1)Nc1ccc2c(c1)OCO2,x,x,x,0%,-1%,-17%,x,13%
FC(F)(F)c1ccccc1CNCc1ccncc1,x,-5%,2%,4%,14%,-21%,x,-11%
CCO[C@H]1OC(C(=O)N2CCOCC2)=C[C@@H](C2CC2)[C@@H]1CCCO,x,2%,-2%,x,x,0%,x,7%
Cc1cc(S(=O)(=O)N2CCOCC2)ccc1OCC(=O)Nc1ccccc1F,x,-1%,0%,-11%,-4%[46.1 µM],9%,x,-4%
CCCCc1nc2cc(C(=O)N3CCN(c4nc(C)cnc4C)CC3)ccc2o1,x,-19%,-2%,x,x,-8%,x,-1%

# (listing goes on)
SMILES,Cruzain inh Det,NS1 inh,SARS PLpro yeast,Lassa entry inh,MARV entry inh,StopGo reporter,Cruzain inh noDet,RE007 growth inh
N#Cc1cc2c(=O)n3ccccc3nc2n(CCN2CCOCC2)c1=O,-5.2%,7%,-1%,x,2%,x,9%,x
CCc1c(C)sc(NC(=O)Cn2nc(C(F)(F)F)c3c2CCCC3)c1C#N,-5.1%,3%,2%,u,u,3%,-11%,18%[3.69 µM]
CC1CCCCC1NC(=O)COc1ccc(C#N)cc1 (centres undefined),x,x,-15%,-6%,-11%,-22%,x,-6%
c1ccc(SSc2ccccn2)nc1,x,x,x,14%,-25%[46.1 µM],-15%,x,45µM*
CCC1CCCCN1CCCCOc1cccc(Cl)c1 (centres undefined),x,-1%,1%,x,x,u,x,-4%
O=C(CN(C(=O)c1csnn1)c1ccccc1F)NCc1ccccc1,x,10%,-1%,1%,-3%[46.1 µM],-1%,x,-8%
CCCOc1ccc(C2C(C(=O)OC)=C(C)N=C3SCCC(=O)N32)cc1OCC (centres undefined),-3.9%,2%,-1%,-18%,u,0%,u,0%
CCOC(=O)c1c(C)[nH]c(C)c1C(=O)COC(=O)c1ccc(OC)cc1,x,-6%,-2%,-11%,18%[14.2 µM],-14%,x,-8%
CCCN(CCC)CCSc1nc(O)c(C(C)C)c(=O)[nH]1,1.8%,0%,0%,9%,4%,4%,-2%,-13%
COc1ccc(CCNc2ncnc3c2nnn3C)cc1,-0.7%,x,x,u,x,-39%,-1%,x
CCOC(=O)c1cnc(SCC(=O)N2CCc3ccccc32)nc1N,-0.4%,1%,-2%,12%,-2%&-2%,x,-4%,0%
CCCC(=O)Nc1ccc2nc(SCCOc3ccccc3)sc2c1,-2.8%,x,x,-16%[46.1 µM],-26%[46.1 µM],-17%,-10%,x
CCOc1ccc(-c2n[nH]c(=S)c3ccccc23)cc1,x,4%,2%,-17%[46.1 µM],-2%[46.1 µM],-9%,x,0%
CCOc1ccc(NC(=O)COC(=O)c2c(OC)cccc2OC)cc1,-1.2%,-14%,23%,u,-11%,3%,1%,40%
Cc1cccc(N(CC(N)=O)C2SC(=O)NC2=O)c1 (centres undefined),-1.5%,5%,-14%,-1%,u,-12%,4%,13%
CCOc1c(C)cc(S(=O)(=O)NCc2cccnc2)c(C)c1C,x,9%,4%,-3%,-16%,5%,x,0%
Cc1ccc(-n2nc3cc(C)c(N)cc3n2)cc1,-4.8%,4%,-4%,13µM*,u,-60%,-24%,-23%
O=S(=O)(Nc1nccs1)c1ccc2c(c1)OCCO2,4.4%,5%,2%,3%,11%,54%[activator],-21%,-4%
